rRNA inh HTS = inhibitors of bacterial rRNA selective over humanized ribosomes. 1.6% of 350,000 active. GFP signal change (wild-type ribosome), % (test concentration not listed). E. coli WT GFP vs humanized-ribosome RFP mutants, fluorescence, 24 h; active compounds read low; DMSO median 0, no signal -100;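 active means significant combined selectivity score with lowered wild-type GFP, culture density cut under 30%, mutant RFP and density less affected; inactive means any of these conditions unmet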; further: one replicate is shown; some compounds called inactive have numbers as strong as hits
MLL AF4-AF9 inh = inhibitors of human MLL-AF4/AF9 interaction; P42568; AlphaScreen, biotin-AF4 peptide binding to FLAG-AF9; inhibition, % at 10 µM; 0.47% of 350,000 active;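 active means every replicate reaching a set inhibition limit, whatever the replicate mean, cut at about 25% in these data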;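 further: 0% = plate neutral control median and 100% = total signal loss; the record names both 10 and 1 µM as test concentration; the first replicate is given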
Target sequence (P42568 whole entry, looked up): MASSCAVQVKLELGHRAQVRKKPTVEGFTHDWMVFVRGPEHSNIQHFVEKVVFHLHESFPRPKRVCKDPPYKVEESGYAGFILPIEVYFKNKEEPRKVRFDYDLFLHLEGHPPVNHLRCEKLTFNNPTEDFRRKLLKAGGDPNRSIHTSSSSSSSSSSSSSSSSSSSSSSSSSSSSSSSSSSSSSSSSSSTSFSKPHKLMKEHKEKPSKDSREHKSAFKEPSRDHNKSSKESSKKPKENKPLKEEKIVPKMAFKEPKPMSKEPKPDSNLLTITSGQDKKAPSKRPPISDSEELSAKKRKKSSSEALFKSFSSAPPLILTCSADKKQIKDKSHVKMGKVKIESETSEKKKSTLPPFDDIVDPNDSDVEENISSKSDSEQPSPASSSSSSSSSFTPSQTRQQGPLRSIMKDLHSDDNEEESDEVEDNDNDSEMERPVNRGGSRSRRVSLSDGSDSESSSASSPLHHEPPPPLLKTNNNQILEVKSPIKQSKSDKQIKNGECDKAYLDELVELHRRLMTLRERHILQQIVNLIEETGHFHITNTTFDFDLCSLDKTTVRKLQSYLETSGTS
FGF22 binding = FGF22 (human) thermal shift binding. Q9HCT0. recombinant FGF22 thermal shift, SYPRO orange fluorescence; percent of sucrose octasulfate shift, DMSO zero. calls only at 9.99 µM. 1.5% of 340,000 active. AID 651658;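 active means melting point raised past a set limit in the mean and every replicate; three in four hits are not shown here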
Target sequence (Q9HCT0 whole entry, looked up): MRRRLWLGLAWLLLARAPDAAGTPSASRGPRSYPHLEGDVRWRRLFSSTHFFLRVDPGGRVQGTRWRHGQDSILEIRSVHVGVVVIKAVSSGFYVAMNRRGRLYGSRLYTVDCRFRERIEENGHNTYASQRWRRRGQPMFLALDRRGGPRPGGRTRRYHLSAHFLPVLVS
rRNA inh HTS OD600 = also measured in rRNA inh HTS; calls as there; OD600 change, %; measured here: OD600 growth;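 optical density of the mix in the first replicate; 0 = DMSO median and -100 = no signal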
rRNA inh HTS RFP = recorded beside rRNA inh HTS, whose call it bears; RFP signal change, %; measured here: RFP humanized mutant strains;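 first replicate; 0 = DMSO median and -100 = no signal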
An asterisk follows results filed as active; i = inactive.

SMILES	rRNA inh HTS	rRNA inh HTS OD600	rRNA inh HTS RFP	MLL AF4-AF9 inh	FGF22 binding
COc1ccc(NC(=O)N[C@@H]2CC[C@@H](CCn3cc(-c4ccccc4F)nn3)O[C@@H]2CO)cc1	2	-1	-0.7	-0.6	i
CNC(=O)OCc1nc(SC2CCCCO2)n(C)c1COC(=O)NC (stereo not given)	3	9	-1.3	-3.1	i
Cc1ccc(S(=O)(=O)N2C[C@H](O)COC[C@H]3O[C@H](CC(=O)NCC4CCCCC4)CC[C@@H]32)cc1	-3	2	1.9	20	i
C[C@H]1CN([C@@H](C)CO)C(=O)Cc2cc(NC(=O)c3ccncc3)ccc2O[C@@H]1CN(C)S(=O)(=O)c1ccccc1	4	8	-1.2	-2.6	i
COc1ccc(NC(=O)N(C)C[C@H]2Oc3c(NC(=O)c4cnccn4)cccc3C(=O)N([C@@H](C)CO)C[C@@H]2C)cc1	5	2	-1.3	-5.2	i
COc1cc2c(cc1OC)C(=O)C(c1ccc3c(c1)OCO3)CC2 (stereo not given)	0	1	-2.0	-0.1	i
COc1ccc(CC(=O)OC(C)C(=O)NC2CCCCC2C)cc1 (stereo not given)	0	-14	2.2	-5.9	i
COc1ccc(C(=O)Nc2ccc3c(c2)OC[C@H](C)N(C)C[C@H](C)[C@@H](OC)CN(C)C3=O)cc1	-2	-2	0.6	-2.0	i
C[C@H]1CN([C@@H](C)CO)C(=O)c2cc(NS(=O)(=O)c3ccc(Cl)cc3)ccc2O[C@H]1CN(C)CC1CC1	3	4	0.2	-9.9	i
COc1ccc(NC(=O)C(C2CC2)n2c(=O)c(-c3ccccc3)nc3ccccc32)cc1 (stereo not given)	10	-5	-0.8	12	i
COc1ccc(C2CCc3cc(OC)c(OC)cc3C2NC=O)cc1OC (stereo not given)	0	4	0.1	3.5	i
COc1ccc(S(=O)(=O)Nc2ccc3c(c2)C(=O)N([C@H](C)CO)C[C@H](C)[C@H](CN(C)Cc2ccc(C(=O)O)cc2)OCCCC[C@H](C)O3)cc1	1	1	1.7	-12	i
CCC(Sc1nc2ccsc2c(=O)n1CCC(=O)O)C(=O)Nc1ccc(Cl)cc1 (stereo not given)	-8	-1	1.8	1.2	i
C[C@@H]1CN([C@H](C)CO)C(=O)c2cccc(NS(=O)(=O)c3ccc(Cl)cc3)c2O[C@H]1CN(C)Cc1ccc(Cl)c(Cl)c1	-2	-1	1.9	-0.4	i
C[C@@H]1CN([C@@H](C)CO)C(=O)c2cc(C#CC3CCCC3)cnc2O[C@H]1CN(C)S(=O)(=O)c1cccc(F)c1	-3	-1	-0.1	-0.6	i
C[C@H](CO)N1C[C@H](C)[C@@H](CN(C)C(=O)Nc2cc(F)ccc2F)Oc2cc(-c3cccc(F)c3)ccc2S1(=O)=O	-3	-3	2.1	1.3	i
CCN(CC)C(=O)C1=C(C)N(CCCOC)C(=O)C(CC(=O)NCC2CCCCC2)C1 (stereo not given)	2	12	19	-1.2	i
CC(=O)c1cccc(-c2cnc3c(NC=O)cc(-c4ccc(C(=O)N5CCOCC5)cc4)cn23)c1	-2	-6	-4.2	-2.3	i
CC(C)c1ccc(Oc2cccc3c2S(=O)(=O)N([C@H](C)c2ccccc2)C[C@@H](COCc2ccccc2)O3)cc1	13	9	-0.4	0.1	i
CO[C@@H]1CN(C)C(=O)c2ccc(NC(=O)NC(C)C)cc2OC[C@@H](C)N(CC2CC2)C[C@@H]1C	2	10	-0.5	-12	i
CCC(=O)N[C@H]1CC[C@@H](CC(=O)NCc2ccccc2F)O[C@@H]1CO	1	-5	-1.5	-1.5	i
CN1C(=O)c2cc(NC(=O)Nc3ccccc3)ccc2OC[C@H]2O[C@@H](CC(=O)NC3CCC3)CC[C@@H]21	0	-3	-1.4	0.4	i
CCCCCCCCN1C(=O)[C@@H](CC(=O)NCc2ccccc2)C[C@@]2(C(=O)OC)C1=C[C@H](C1CCCC1)O[C@@H]2C	20	21	0.9	-1.9	i
CN(C)CCCNC(=O)C[C@H]1CC[C@@H]2[C@H](COC[C@H](O)CN2CC2CCCC2)O1	0	-5	-1.2	-1.2	i
C[C@H]1CN([C@@H](C)CO)C(=O)Cc2cc(NC(=O)Nc3ccc(F)cc3)ccc2O[C@@H]1CN(C)C(=O)NC1CCCCC1	1	-1	-0.1	-1.2	i
Oc1ccc(C[C@H]2CNC(=S)N2C[C@H]2CCCN2C[C@H](Cc2ccccc2)N2C[C@H](Cc3ccc(O)cc3)N(CCc3ccccc3)C2=S)cc1	11	7	9.7	-69	i
CCCNC(=O)[C@@H]1[C@@H](CO)[C@@H]2Cn3c(ccc(-c4ccccc4)c3=O)[C@H]1N2C(=O)C1CC1	-1	-5	0.0	-0.3	i
CO[C@H]1CN(C)C(=O)c2cc(NC(=O)c3ccno3)ccc2OC[C@H](C)N(S(C)(=O)=O)C[C@H]1C	5	4	-1.1	-4.6	i
O=C(C[C@@H]1CC[C@@H](NC(=O)C2CC2)[C@H](CO)O1)Nc1nccs1	2	8	-1.7	-0.5	i
Cc1ccc2c(Cl)c(C)c(N3CCOCC3)nc2n1	-12	-18	-0.1	-14	i
CN1C(=O)c2cc(NC(=O)Cc3ccccc3)ccc2OC[C@@H]2O[C@@H](CC(=O)NC3CCC3)CC[C@@H]21	0	-3	0.8	0.5	i
C[C@H](CO)N1C[C@H](C)[C@@H](CN(C)C(=O)Nc2ccccc2)Oc2ccc(NC(=O)C3CCCCC3)cc2CC1=O	1	9	0.7	-1.8	i
CC(C)CC1C(=O)N(Cc2cn(Cc3ccco3)nn2)CCS(=O)(=O)N1Cc1ccc(-c2ccc(F)nc2)cc1 (stereo not given)	-11	-14	1.8	1.1	i
CC1(C)Cc2c(c(N3CCOCC3)nc3sc4c(NCCN)ncnc4c23)CO1	-4	-2	8.4	6.4	i
CC(C)NC(=O)Nc1cccc2c1O[C@H](CN(C)CC1CCCCC1)[C@@H](C)CN([C@H](C)CO)C2=O	-1	-13	-2.2	1.6	i
Cc1cc(C(=O)Nc2cccc3c2O[C@H](CN(C)Cc2ccccc2)[C@H](C)CN([C@H](C)CO)C3=O)n(C)n1	0	4	-0.1	1.6	i
COc1ccc(S(=O)(=O)N2CCCCN3[C@H](CO)[C@H](c4ccc(-c5cccnc5)cc4)[C@H]3C2)cc1	-4	-2	0.3	4.6	i
C[C@H](CO)N1C[C@H](C)[C@H](CN(C)Cc2ccccc2)Oc2cc(-c3cncnc3)ccc2S1(=O)=O	2	4	-4.7	0.4	i
N#C[C@H]1[C@@H](c2ccccc2C2=CCCC2)[C@@H](CO)N1C(=O)CN1CCOCC1	5	-3	-7.4	-1.9	i
C[C@H]1CN([C@@H](C)CO)S(=O)(=O)c2ccc(-c3cccc(C#N)c3)cc2O[C@H]1CN(C)C(=O)c1cccnc1	0	12	-1.1	-1.5	i
CN(C)c1ccc2c(c1)[C@H]1C[C@H](CC(=O)NCC3CC3)O[C@H](CO)[C@H]1O2	3	1	4.7	-9.7	i
CCCC1NC(=O)c2cc3ccccc3cc2-n2c1nc1ccc(C)cc1c2=O (stereo not given)	3	2	14	-0.2	i
C[C@H](CO)N1C[C@H](C)[C@@H](CN(C)Cc2ccc(Oc3ccccc3)cc2)Oc2c(NS(=O)(=O)c3ccc(Cl)cc3)cccc2C1=O	-3	-5	0.6	1.1	i
CCCC#Cc1cnc2c(c1)C(=O)N([C@H](C)CO)C[C@H](C)[C@H](CN(C)C(=O)NC1CCCC1)O2	3	-9	4.0	-2.2	i
CCc1nc2c(OCc3ccc(Cl)cc3)cccn2c1N(C)C(=O)c1ccc2c(c1)OCO2	-3	-41	9.4	3.7	i

Reprinted from the part before: 3 entries, then new ones.
SMILES	rRNA inh HTS	rRNA inh HTS OD600	rRNA inh HTS RFP	MLL AF4-AF9 inh	FGF22 binding
C[C@H](CO)N1C[C@H](C)[C@@H](CN(C)Cc2ccc(Oc3ccccc3)cc2)Oc2c(NS(=O)(=O)c3ccc(Cl)cc3)cccc2C1=O	-3	-5	0.6	1.1	i
CCCC#Cc1cnc2c(c1)C(=O)N([C@H](C)CO)C[C@H](C)[C@H](CN(C)C(=O)NC1CCCC1)O2	3	-9	4.0	-2.2	i
CCc1nc2c(OCc3ccc(Cl)cc3)cccn2c1N(C)C(=O)c1ccc2c(c1)OCO2	-3	-41	9.4	3.7	i
CC(=O)N(C)C[C@@H]1Oc2ncc(C3=CCCC3)cc2C(=O)N([C@H](C)CO)C[C@H]1C	2	1	-1.2	-3.3	i
O=S(=O)(c1ccccc1)N1CCCCN2[C@H](C1)[C@H](c1ccc(-c3ccccc3)cc1)[C@@H]2CO	-1	-13	6.2	-4.9	i
C[C@H](C(=O)N(C)C[C@H]1OCc2ccccc2-c2ccccc2C(=O)N([C@@H](C)CO)C[C@@H]1C)c1ccccc1	-1	-3	0.6	-0.3	i
C[C@H]1CN([C@@H](C)CO)C(=O)c2cc(NC(=O)CCC(F)(F)F)ccc2O[C@H]1CN(C)Cc1ccc(C(F)(F)F)cc1	-5	-12	0.5	1.3	i
C[C@@H](NC(=O)C[C@H]1CC[C@H]2[C@@H](COc3ccc(NS(=O)(=O)c4ccc(Cl)cc4)cc3C(=O)N2C)O1)c1ccccc1	1	5	-2.6	-6.6	i
O=C(NCC[C@H]1CC[C@H](NC(=O)c2cccnc2)[C@H](CO)O1)Nc1ccc(F)cc1	4	-3	4.9	22	i
C[C@@H]1CN([C@@H](C)CO)C(=O)c2cc(NS(C)(=O)=O)ccc2O[C@@H]1CN(C)CC1CCCCC1	0	2	-0.9	-13	i
CO[C@@H]1CN(C)C(=O)c2cc(NS(=O)(=O)c3ccc(F)cc3)ccc2OC[C@@H](C)N(C)C[C@H]1C	-1	0	0.0	-12	i
CC(=O)Nc1ccc2c(c1)C(=O)N(C)[C@@H]1CC[C@H](CC(=O)NCc3ccc(F)cc3)O[C@@H]1CO2	-1	-4	-3.0	-2.0	i
COc1cccc(CN(C)C(=O)Cn2cc(C)c(=O)[nH]c2=O)c1	10	7	-3.3	-0.3	i
COCC(=O)N(C)C[C@H]1Oc2cc(-c3ccc(OC)cc3)ccc2S(=O)(=O)N([C@@H](C)CO)C[C@@H]1C	-7	-12	3.0	1.6	i
Cc1ccc(-c2nc3ccc(C)cn3c2Cc2ccsc2)cc1	-17	-6	1.1	-0.4	i
CC(C)C#Cc1ccc2c(c1)O[C@@H](CN(C)Cc1cccnc1)[C@@H](C)CN([C@@H](C)CO)S2(=O)=O	-4	-25	2.4	8.1	i
COc1ccc(CN(C)C[C@H]2Oc3c(NC(=O)Nc4ccc(OC)cc4)cccc3C(=O)N([C@@H](C)CO)C[C@@H]2C)cc1	-4	-12	0.5	1.2	i
CO[C@@H]1CC[C@@H]2CCOc3ccc(C#N)cc3C(=O)N(C)C[C@H](C)C(=O)N(C)C[C@@H]1O2	1	1	-7.1	1.7	i

5 compounds from above, arranged by molecular weight, lowest first:
SMILES	rRNA inh HTS	rRNA inh HTS OD600	rRNA inh HTS RFP	MLL AF4-AF9 inh	FGF22 binding
O=C(NCC[C@H]1CC[C@H](NC(=O)c2cccnc2)[C@H](CO)O1)Nc1ccc(F)cc1	4	-3	4.9	22	i
CO[C@@H]1CC[C@@H]2CCOc3ccc(C#N)cc3C(=O)N(C)C[C@H](C)C(=O)N(C)C[C@@H]1O2	1	1	-7.1	1.7	i
CO[C@@H]1CN(C)C(=O)c2cc(NS(=O)(=O)c3ccc(F)cc3)ccc2OC[C@@H](C)N(C)C[C@H]1C	-1	0	0.0	-12	i
COc1ccc(CN(C)C[C@H]2Oc3c(NC(=O)Nc4ccc(OC)cc4)cccc3C(=O)N([C@@H](C)CO)C[C@@H]2C)cc1	-4	-12	0.5	1.2	i
C[C@@H](NC(=O)C[C@H]1CC[C@H]2[C@@H](COc3ccc(NS(=O)(=O)c4ccc(Cl)cc4)cc3C(=O)N2C)O1)c1ccccc1	1	5	-2.6	-6.6	i

More entries:
SMILES	rRNA inh HTS	rRNA inh HTS OD600	rRNA inh HTS RFP	MLL AF4-AF9 inh	FGF22 binding
CCN(C(=O)COC(=O)CCOc1cc(C)ccc1C)c1c(N)n(Cc2ccccc2)c(=O)[nH]c1=O	17	17	0.8	-2.1	i
O=C(C[C@@H]1CC[C@H]2[C@@H](COC[C@@H](O)CN2C(=O)c2cnccn2)O1)NCc1ccccc1	6	12	-0.1	0.6	i
CC(C)NC(=O)N(C)C[C@H]1Oc2ccc(NC(=O)NC3CCCCC3)cc2CC(=O)N([C@@H](C)CO)C[C@@H]1C	1	4	1.4	-2.9	i
COCCNc1ncnc2c1ncn2[C@H]1CN(CCN2CCOCC2)C[C@@H](CO)O1	11	25	-0.3	-1.9	i
CCS(=O)(=O)N1CCCCN2[C@H](CO)[C@@H](c3ccc(C#Cc4ccccn4)cc3)[C@@H]2C1	-2	-12	-1.2	-4.8	i
CN(C)C(=O)C[C@@H]1C[C@H]2c3cc(NC(=O)NC4CCCCC4)ccc3O[C@H]2[C@@H](CO)O1	2	4	-2.3	0.0	i
O=C(O)C[C@H]1C[C@H]2c3cc(NC(=O)Nc4ccccc4)ccc3O[C@H]2[C@H](CO)O1	3	11	-0.3	-8.3	i
CCCCN(Cc1ccccc1)S(=O)(=O)c1cc2c(cc1Br)CC(C)N2C(C)=O (stereo not given)	3	-17	4.2	3.6	i
C[C@H]1CN([C@@H](C)CO)C(=O)c2cc(-c3cccc(C(=O)N(C)C)c3)cnc2O[C@@H]1CN(C)C	4	4	-5.0	-2.9	i

This is a subset; count on the stated rates, not on these rows.
